Vaccinia inh – blocks a specific stage of Vaccinia orthopoxvirus infection, primary screen, cell-based, single point. Vaccinia-infected cells, mCherry/Venus stage reporter fluorescence; hits give low values; some inactives read as strong as hits. activity change (mCherry), % (concentration not given with the values). 0.01% of 89,000 active. AID 1053133, 2014;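 active = mCherry past -33% and 40 or more points under the early reporter, replicates agreeing; inconclusive = past -33% without that gap or agreement; tested in A549 cells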;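 note: scaled between vehicle wells and reference inhibitor wells; 23 nL library stock went into each well; one replicate is shown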
Vaccinia inh Venus – recorded beside Vaccinia inh, whose call it bears; activity change (Venus), %; measured here: Venus reporter, other viral stage;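 negative = less Venus signal; first of two replicates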
* marks the source's active call; other numbers are inactive results; ? = inconclusive; / = no result given.

Start of the data: the first 5 entries, to show the layout:
SMILES	Vaccinia inh	Vaccinia inh Venus
C/C=C/c1cnc2c(c1)C(=O)N([C@H](C)CO)C[C@@H](C)[C@@H](CN(C)C(=O)Nc1ccc(F)cc1)O2	7.4	-3.5
C[C@@H]1CN([C@@H](C)CO)C(=O)c2cccc(NC(=O)CCCCCC(=O)Nc3ccccc3N)c2O[C@@H]1CN(C)Cc1ccc(Cl)c(Cl)c1	?	/
O=C(C1CCCCC1)N1C[C@@H]2[C@H](c3ccccc31)[C@@H](CO)N2C(=O)c1ccccc1F	-0.3	-4.8
CC(C)NC(=O)N(C)C[C@@H]1Oc2cc(C#Cc3cccc(F)c3)ccc2S(=O)(=O)N([C@@H](C)CO)C[C@@H]1C	?	/
CO[C@@H]1CN(C)C(=O)c2ccc(NC(=O)C3CCOCC3)cc2OC[C@H](C)N(CC2CC2)C[C@H]1C	7.6	10.1

Main list, from the first entry:
SMILES	Vaccinia inh	Vaccinia inh Venus
C/C=C/c1cnc2c(c1)C(=O)N([C@H](C)CO)C[C@@H](C)[C@@H](CN(C)C(=O)Nc1ccc(F)cc1)O2	7.4	-3.5
C[C@@H]1CN([C@@H](C)CO)C(=O)c2cccc(NC(=O)CCCCCC(=O)Nc3ccccc3N)c2O[C@@H]1CN(C)Cc1ccc(Cl)c(Cl)c1	?	/
O=C(C1CCCCC1)N1C[C@@H]2[C@H](c3ccccc31)[C@@H](CO)N2C(=O)c1ccccc1F	-0.3	-4.8
CC(C)NC(=O)N(C)C[C@@H]1Oc2cc(C#Cc3cccc(F)c3)ccc2S(=O)(=O)N([C@@H](C)CO)C[C@@H]1C	?	/
CO[C@@H]1CN(C)C(=O)c2ccc(NC(=O)C3CCOCC3)cc2OC[C@H](C)N(CC2CC2)C[C@H]1C	7.6	10.1
C[C@@H]1CCCCO[C@H](CN(C)C(=O)Nc2ccc(C(F)(F)F)cc2)[C@H](C)CN([C@@H](C)CO)C(=O)c2cc(N(C)C)ccc2O1	-25.0	-18.4
CN(C)C(=O)[C@@H]1[C@@H](CO)[C@@H]2Cn3c(ccc(C4=CCCC4)c3=O)[C@H]1N2CC1CCOCC1	6.0	7.9
C[C@H](CO)N1C[C@H](C)[C@@H](CN(C)S(C)(=O)=O)OCCCC[C@H](C)Oc2ccc(NC(=O)C3CCCCC3)cc2C1=O	6.4	0.7
N#Cc1cccc(-c2ccc([C@@H]3[C@@H](CO)N4CCCCN(C(=O)Nc5cccc(F)c5)C[C@H]34)cc2)c1	?	/
Cc1noc(C)c1S(=O)(=O)Nc1ccc2c(c1)C(=O)N([C@@H](C)CO)C[C@H](C)[C@@H](CN(C)C(=O)c1ccccc1)OCCCC[C@H](C)O2	17.7	3.5
CCN1[C@@H]2Cn3c(ccc(-c4ccccc4OC)c3=O)[C@H]1[C@@H](C(=O)NCc1ccccn1)[C@@H]2CO	6.9	-1.9
C[C@H]1CN([C@@H](C)CO)S(=O)(=O)c2ccc(C#Cc3cccnc3)cc2O[C@@H]1CN(C)C	11.1	10.5
CN1C(=O)c2cc(NC(=O)c3ccc(F)cc3)ccc2OC[C@H]2O[C@@H](CC(=O)NCC3CCCCC3)CC[C@@H]21	-18.9	-13.2
CCCNC(=O)C[C@H]1CC[C@@H]2[C@H](COC[C@@H](O)CN2Cc2ccccc2F)O1	6.7	2.5
O=C(NC[C@@H]1CC[C@@H]2[C@@H](CN2C(=O)NC2CCCC2)O1)c1ccc2c(c1)OCO2	3.5	1.5
COC(=O)c1ccc(CN2CC(=O)N3[C@@H](CO)[C@@H](c4ccc(-c5ccccc5F)cc4)[C@@H]3C2)cc1	-3.2	-5.3
CCCN(C)C[C@@H]1Oc2ncc(-c3cccc(C#N)c3)cc2C(=O)N([C@H](C)CO)C[C@@H]1C	13.0	3.2
COc1ccccc1S(=O)(=O)N(C)C[C@@H]1OCc2ccccc2-c2ccccc2C(=O)N([C@H](C)CO)C[C@H]1C	-1.2	-7.9
O=C(NCC[C@H]1CC[C@H](NC(=O)Nc2cc(F)ccc2F)[C@@H](CO)O1)Nc1ccc(F)cc1	2.8	0.6
CCCNC(=O)N1CC2(CCN(C(C)=O)CC2)c2c(n(C)c3cc(OC)ccc23)[C@H]1CO	26.0	1.1
C[C@H](CO)N1C[C@H](C)[C@@H](CN(C)CC2CC2)Oc2ccc(NC(=O)Cc3ccccc3)cc2C1=O	4.8	2.4
C[C@@H]1CN([C@@H](C)CO)C(=O)Cc2cc(NC(=O)Cc3cn(C)c4ccccc34)ccc2O[C@@H]1CN(C)Cc1ccc(Cl)c(Cl)c1	?	/
C[C@H]1CN([C@@H](C)CO)C(=O)Cc2cc(NS(=O)(=O)c3ccccc3)ccc2O[C@@H]1CN(C)C	10.8	4.3
O=C(N[C@H]1CC[C@@H](CCNS(=O)(=O)c2ccc(Cl)cc2)O[C@H]1CO)c1ccccn1	0.2	3.2
OC[C@@H]1[C@@H](c2ccccc2)C2(CN(CC3CCOCC3)C2)N1Cc1cncnc1	0.4	3.7

An excerpt from above in order of length of the SMILES, smallest number first.
SMILES	Vaccinia inh	Vaccinia inh Venus
OC[C@@H]1[C@@H](c2ccccc2)C2(CN(CC3CCOCC3)C2)N1Cc1cncnc1	0.4	3.7
O=C(C1CCCCC1)N1C[C@@H]2[C@H](c3ccccc31)[C@@H](CO)N2C(=O)c1ccccc1F	-0.3	-4.8
COC(=O)c1ccc(CN2CC(=O)N3[C@@H](CO)[C@@H](c4ccc(-c5ccccc5F)cc4)[C@@H]3C2)cc1	-3.2	-5.3

Further records follow:
SMILES	Vaccinia inh	Vaccinia inh Venus
C[C@H](CO)N1C[C@H](C)[C@@H](CN(C)C)Oc2cc(C#C[C@@H](C)O)ccc2S1(=O)=O	12.4	0.9
C[C@@H]1CN([C@H](C)CO)C(=O)c2c(c3ccccc3n2C)-c2ccccc2CO[C@@H]1CN(C)C(=O)[C@H]1CCCN1C	-7.0	-10.5
Cc1cccc(-c2ccc([C@@H]3[C@H](CO)N4CCCCN(C(=O)c5ccc6c(c5)OCO6)C[C@@H]34)cc2)c1	?	/
C[C@@H]1CCCCO[C@H](CN(C)Cc2ccc(Cl)c(Cl)c2)[C@H](C)CN([C@@H](C)CO)C(=O)c2cc(NC(=O)Cc3ccccc3)ccc2O1	?	/
COc1ccc(S(=O)(=O)N(C)C[C@@H]2OCc3cn(nn3)CCCC(=O)N([C@@H](C)CO)C[C@@H]2C)cc1	9.5	4.0
Cc1noc(C)c1NC(=O)N(C)C[C@@H]1OCc2ccccc2-c2c(n(C)c3ccccc23)C(=O)N([C@@H](C)CO)C[C@@H]1C	1.1	-0.4
C[C@@H]1CN([C@@H](C)CO)S(=O)(=O)c2ccc(-c3ccccc3F)cc2O[C@H]1CN(C)Cc1cccnc1	?	/
C[C@@H]1CN([C@@H](C)CO)C(=O)Cc2cc(NC(=O)NC3CCCCC3)ccc2O[C@@H]1CN(C)S(=O)(=O)c1cccs1	4.9	0.8
O=C(C[C@H]1C[C@H]2c3cc(NC(=O)c4cccnc4)ccc3O[C@H]2[C@H](CO)O1)NC1CCCC1	0.4	4.5
CCCN1C[C@@H](C)[C@@H](OC)CN(C)C(=O)c2ccc(NC(=O)c3cccc(OC)c3)cc2OC[C@@H]1C	-8.3	-7.7
C[C@H](CO)N1C[C@H](C)[C@@H](CN(C)Cc2ccc(-c3ccccc3)cc2)Oc2ccc(NC(=O)Nc3ccc4c(c3)OCO4)cc2CC1=O	22.1	11.8
C[C@@H]1CN([C@@H](C)CO)C(=O)c2cccc(NC(=O)Nc3ccc4c(c3)OCO4)c2O[C@@H]1CN(C)Cc1ccc(C(F)(F)F)cc1	-25.3	-13.3
C[C@H](CO)N1C[C@H](C)[C@@H](CN(C)C)Oc2ncc(C#Cc3ccccc3F)cc2C1=O	-26.0	-20.5
COCC(=O)Nc1ccc2c(c1)C(=O)N(C)[C@H]1CC[C@@H](CC(=O)NCC(F)(F)F)O[C@H]1CO2	3.1	-1.7
CCCNC(=O)N1CC2(CCN(C)CC2)c2c([nH]c3cc(OC)ccc23)[C@@H]1CO	7.5	-0.6
C[C@@H]1CN([C@H](C)CO)C(=O)c2cc(C#CCN(C)C)cnc2O[C@H]1CN(C)S(=O)(=O)c1ccccc1	8.0	3.8
C[C@H]1CN([C@@H](C)CO)C(=O)c2cccc(NC(=O)c3ccncc3)c2O[C@H]1CN(C)S(=O)(=O)c1cn(C)cn1	18.9	18.2
C[C@@H]1CN([C@H](C)CO)C(=O)c2cccc(NS(=O)(=O)c3cn(C)cn3)c2O[C@@H]1CN(C)Cc1ccc(C(=O)O)cc1	5.5	0.5
O=C(Cc1ccccn1)N1CC2(C1)[C@H](c1ccccc1)[C@H](CO)N2Cc1ccccn1	5.4	12.3
C[C@H]1CN([C@@H](C)CO)C(=O)c2cc(NC(=O)C3CCCCC3)ccc2O[C@H]1CN(C)C	4.5	4.4
COc1ccc(NC(=O)N(C)C[C@H]2Oc3cc(-c4ccncc4)ccc3S(=O)(=O)N([C@H](C)CO)C[C@H]2C)cc1	-6.5	-8.4
CO[C@H]1CN(C)C(=O)c2ccc(NC(=O)C3CC3)cc2OC[C@H](C)N(CC2CCCC2)C[C@H]1C	-4.9	1.5
CCC(=O)N(C)C[C@H]1Oc2ncc(C#C[C@@H](C)O)cc2C(=O)N([C@H](C)CO)C[C@H]1C	17.7	26.1
C[C@@H]1CN([C@H](C)CO)C(=O)c2cc(/C=C/c3ccccc3)cnc2O[C@H]1CN(C)C(=O)CN(C)C	-1.9	-1.6
C[C@@H]1CCCCO[C@@H](CN(C)C(=O)Nc2cccc3ccccc23)[C@@H](C)CN([C@H](C)CO)C(=O)c2cc(NS(=O)(=O)c3ccc(Cl)cc3)ccc2O1	37.2	34.7
New compounds follow.
SMILES	Vaccinia inh	Vaccinia inh Venus
O=C(C1CC1)N1CC(=O)N2[C@H](CO)[C@H](c3ccc(C#CC4CCCC4)cc3)[C@@H]2C1	-0.7	-0.8
C[C@H]1CN([C@@H](C)CO)C(=O)c2cccc(NS(=O)(=O)c3ccccc3)c2O[C@@H]1CN(C)Cc1ccc(Cl)c(Cl)c1	-12.3	-13.4
COc1ccc(NC(=O)N2CC[C@@H]3[C@H]2c2cc(C4=CCCCC4)ccc2N(C)[C@H]3CO)cc1	3.8	4.6
COc1ccc(CN(C)C[C@H]2Oc3ccc(NC(=O)Cc4ccccc4)cc3C(=O)N([C@H](C)CO)C[C@H]2C)cc1	-14.4	-6.3
O=S(=O)(c1ccccc1F)N1CCCCN2[C@H](C1)[C@@H](c1ccc(-c3ccccc3)cc1)[C@@H]2CO	27.1	9.6
COc1ccc(-c2ccc3n(c2=O)C[C@H]2[C@H](CO)[C@@H](C(=O)NCC4CC4)N(C(=O)NC(C)C)[C@@H]32)cc1	16.8	16.5
CC(=O)n1cc([C@@H]2C=C(C(=O)N3CCCCCCC3)O[C@H](OCc3ccc(CO)cc3)C2)c2ccccc21	-2.3	-4.6
COc1ccc(NC(=O)N[C@@H]2CC[C@@H](CCn3cc(-c4ccccn4)nn3)O[C@@H]2CO)cc1	-8.8	-9.4
O=C(C[C@H]1C=C[C@H](NS(=O)(=O)c2ccccc2)[C@H](CO)O1)NCc1ccc(Cl)c(Cl)c1	-11.8	-3.7
C[C@@H]1CN([C@H](C)CO)C(=O)Cc2cc(NC(=O)CCN3CCOCC3)ccc2O[C@@H]1CN(C)S(=O)(=O)c1ccc(F)cc1	11.4	6.2
C[C@H]1CN([C@@H](C)CO)C(=O)c2cc(NC(=O)CCC(F)(F)F)ccc2O[C@H]1CN(C)Cc1ccc(C(=O)O)cc1	10.9	7.2
O=C(O)C[C@H]1C=C[C@@H](NC(=O)Nc2ccccc2)[C@H](CO)O1	11.9	12.3
C[C@H]1CN([C@@H](C)CO)C(=O)c2cc(NC(=O)CCC(F)(F)F)ccc2O[C@H]1CN(C)Cc1ccc(-c2ccccc2)cc1	-17.7	-5.2
Cc1ccccc1-c1ccc(C2[C@@H]3CN(C(=O)Nc4cccc(F)c4)C[C@H]2N3)cc1 (stereo partly drawn)	?	/
C[C@@H]1CCCCO[C@H](CN(C)C(=O)Nc2ccc3c(c2)OCO3)[C@@H](C)CN([C@H](C)CO)C(=O)c2cc(NC(=O)Nc3ccc(C(F)(F)F)cc3)ccc2O1	-5.8	6.6
Cc1noc(C)c1NC(=O)N(C)C[C@H]1Oc2ccc(NS(=O)(=O)c3ccc(F)cc3)cc2C(=O)N([C@H](C)CO)C[C@@H]1C	9.5	5.4
C[C@H]1CN([C@@H](C)CO)S(=O)(=O)c2ccc(C#Cc3ccccc3)cc2O[C@H]1CN(C)C(=O)c1ccccn1	?	/
O=C1CN(S(=O)(=O)c2ccccc2)C[C@@H]2[C@@H](c3ccc(C#Cc4ccccc4)cc3)[C@H](CO)N12	-9.5	-7.0
COc1cccc(CN2[C@@H](CO)[C@@H]3c4ccccc4N(C(=O)c4cccnc4)C[C@@H]32)c1	-2.5	-2.0
CCCN(C)C[C@H]1Oc2cc(-c3cccc(OC)c3)ccc2S(=O)(=O)N([C@H](C)CO)C[C@H]1C	4.1	6.6
CCCNC(=O)C[C@H]1CC[C@H]2[C@@H](COC[C@H](O)CN2C(=O)c2ccccn2)O1	13.7	3.6
Cc1noc(C)c1S(=O)(=O)N(C)C[C@@H]1OCCCC[C@H](C)Oc2ccc(NS(C)(=O)=O)cc2C(=O)N([C@H](C)CO)C[C@H]1C	2.7	-2.1
Cc1ccc(S(=O)(=O)N[C@H](C(=O)NCCN=[N+]=[N-])C(C)C)cc1	14.0	4.1
C[C@@H]1CN([C@H](C)CO)C(=O)c2cc(-c3cncnc3)cnc2O[C@@H]1CN(C)C(=O)c1cccc(F)c1	6.4	-3.4
COc1ccc(S(=O)(=O)N[C@@H]2CC[C@H](CCNC(=O)Cc3ccccn3)O[C@@H]2CO)cc1	0.3	-5.6
C[C@H](CO)N1C[C@H](C)[C@@H](CN(C)Cc2ccc(Cl)c(Cl)c2)Oc2ccc(NC(=O)Cc3ccccc3)cc2CC1=O	?	/
C[C@H]1CN([C@@H](C)CO)C(=O)c2cc(-c3cccc(C#N)c3)cnc2O[C@H]1CN(C)C(=O)c1cnccn1	24.0	11.2
NCC[C@H]1CC[C@@H](NS(=O)(=O)Cc2ccccc2)[C@@H](CO)O1	0.0	9.9
CCCC#Cc1ccc([C@@H]2[C@@H](CO)N3C(=O)CN(C(=O)c4cccnc4)C[C@@H]23)cc1	2.3	-4.2

An excerpt (hit frequency here may not be typical).
